High-throughput results (PubChem BioAssay)
Resorufin autofl: resorufin region autofluorescence; Compound fluorescence, resorufin region 547/598 nm, buffer; active compounds read high; max dye-equivalent concentration, M; 0.04% of 59,000 active; active = above 10 nM dye equivalent; inconclusive = 1 to 10 nM; inactive = 1 nM or less; a few of its hits are not listed in these tables; further: highest value over a series up to 38 µM
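Tris 100 mM pH 8.0; compound added, 15 min RT; CCD imager read, ex 547 nm/em 598 nm; signal normalized to resorufin standard curve (six concentrations per plate) as dye-equivalent concentration.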
A647 fluor: A647 region autofluorescence; AID 592; 59,000 tested, under 10 active; max dye-equivalent concentration, M; Compound fluorescence, A647 channel (570/671 nm), Tris buffer; active means above 1 µM dye equivalent; inconclusive means 0.1 to 1 µM; inactive means 0.1 µM or less;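 further: values scaled relative to a standard on each plate; highest value over a series up to 38 µM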
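Fluorescence read (570 nm ex, 671 nm em) after 15 min RT incubation of compounds in 100 mM Tris buffer, pH 8.0; values expressed as dye-equivalent concentration against a six-point A647 standard series on each plate.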
TSHR agonist: TSH receptor (human) agonism; HEK293-CNG-TSHR cells (CNG channel as cAMP sensor), membrane potential dye, cAMP; 0.48% of 73,000 active; P16473; AID 926; Potency, µM (highest dose often 57.1 µM), without a hit: top-dose activation, usual class: activators; active = well fitted activation curve of enough size with the parental cells flat; inconclusive = any curve in the parental cells; inactive = parental cells flat and receptor cells flat or falling; further: potency means the concentration at half of the fitted maximal effect; % of control where 0% means no effect; weak receptor curves with flat parental cells got no call and are not listed
Target sequence (P16473 whole entry, looked up): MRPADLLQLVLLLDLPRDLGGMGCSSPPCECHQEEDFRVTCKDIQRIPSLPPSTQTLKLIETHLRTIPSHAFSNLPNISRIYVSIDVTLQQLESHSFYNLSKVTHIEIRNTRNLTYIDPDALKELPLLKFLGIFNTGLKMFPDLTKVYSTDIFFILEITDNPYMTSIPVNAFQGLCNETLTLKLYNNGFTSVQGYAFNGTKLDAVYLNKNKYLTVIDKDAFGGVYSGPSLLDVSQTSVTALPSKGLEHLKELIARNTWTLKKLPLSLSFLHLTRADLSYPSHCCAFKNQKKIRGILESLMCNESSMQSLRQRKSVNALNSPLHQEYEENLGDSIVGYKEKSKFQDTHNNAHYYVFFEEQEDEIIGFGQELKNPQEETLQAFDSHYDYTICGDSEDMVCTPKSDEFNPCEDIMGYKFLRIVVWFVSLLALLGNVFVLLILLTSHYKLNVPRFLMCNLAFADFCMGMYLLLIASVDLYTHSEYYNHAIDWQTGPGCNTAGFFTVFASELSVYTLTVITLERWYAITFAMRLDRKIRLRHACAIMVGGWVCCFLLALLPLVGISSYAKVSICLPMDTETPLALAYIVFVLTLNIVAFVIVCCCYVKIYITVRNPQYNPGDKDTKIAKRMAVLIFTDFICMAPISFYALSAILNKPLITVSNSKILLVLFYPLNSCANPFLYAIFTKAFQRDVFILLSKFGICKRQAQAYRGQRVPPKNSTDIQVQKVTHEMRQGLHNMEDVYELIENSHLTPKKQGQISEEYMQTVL
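cAMP rise detected as CNG-channel membrane depolarization by fluorescent dye (emission 590 nm), 30 min after compound, following 60 min dye loading containing 100 uM RO 20-1724 at room temperature. Cells: TSHR/CNG HEK 293, with parental CNG HEK 293 as control.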
A488 fluor: compound fluoresces in the A488 spectral region; compound autofluorescence, A488 spectral region, dye equivalency; active compounds read high; max dye equivalency, M; 0.1% of 59,000 active; AID 591; active = above 10 nM dye equivalent; inconclusive = 1 to 10 nM; inactive = 1 nM or less; about half of its hits are not listed in these tables;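 further: highest value over a series up to 38 µM; compound alone in buffer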
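Autofluorescence read at ex 480/em 540 nm after 15 min RT in 100 mM Tris pH 8.0; compound signal normalized to A488 standard series on each plate, reported as dye-equivalent concentration at each test concentration.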
AID923: qHTS Assay for Allosteric/Competitive Inhibitors of Caspase-1: Spectroscopic Profiling in AFC Spectral Region; compound fluorescence, AFC spectral region (405/520 nm); almost no hit is shown here; Potency, µM (top dose mostly 57.5 µM), for the others: at the highest dose fluorescence increase, most hits filed as activators; 1.1% of 75,000 active; AID 923, 2007; active means well fitted activation curve with a large enough effect; inconclusive means small, poorly fitted or top-dose-only effect;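 further: potency means the concentration at half of the fitted maximal effect; 0% is about no effect; scaled to a free AFC standard on each plate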
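Baseline compound fluorescence (AFC region, 405 nm ex/520 nm em) taken from the intercept of kinetic reads with 50 nM caspase-1 and 5 uM Ac-WEHD-AFC; normalized to an on-plate AFC standard curve; compounds titrated up to 57 uM.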
Numbers without * were called inactive; i = inactive; ? = inconclusive; . = not tested or not shown; & = joins results of further samples; ! = not confirmed by another sample; [ ] = another dose, or the depositor's remark. These rows are one share of the data, so the mix of outcomes need not match the whole.

SMILES | Resorufin autofl | A647 fluor | TSHR agonist | A488 fluor | AID923
CC(C)N(C(=O)COc1ccc(Br)cc1Cl)C(C)C | . | . | ? | . | -1.1%
CCCCOC(=O)C1=C(C)Nc2ncnn2C1c1ccc(OC)c(OC)c1OC (stereo not given) | i | 1e-09 | 3% | i | -0.8%
CCCOc1c(OC)cccc1C1CC(=O)Nc2cc(OC)c(OC)c(OC)c21 (stereo not given) | i | 4e-08 | 14% | i | -1.1%
CC1(C)CC(=O)C2=C(C1)N(c1ccccc1)C(N)=C(C#N)C2c1cccnc1 (stereo not given) | i | 3.4e-08 | 3% | i | 5.8%
O=C1CCCCCC1C1(O)C(=O)Nc2ccccc21 (stereo not given) | . | . | -6% | . | 0.7%
COc1ccccc1-c1nc2n(n1)C(c1ccccc1Cl)C(C(N)=O)=C(C)N2 (stereo not given) | . | . | 2% | . | 2.9%
Cn1ccnc1Sc1nnnn1-c1ccccc1 | i | 3e-08 | 7% | i | 0.4%
Cc1ccc(CCNC(=O)CN2CCN(Cc3ccccc3F)C2=O)cc1 | i | 2.4e-09 | ? | i | -0.6%

Given as labelled records: entries from further up
O=C1CCCCCC1C1(O)C(=O)Nc2ccccc21 (stereo not given)
  Resorufin autofl: .
  A647 fluor: .
  TSHR agonist: -6%
  A488 fluor: .
  AID923: 0.7%
COc1ccccc1-c1nc2n(n1)C(c1ccccc1Cl)C(C(N)=O)=C(C)N2 (stereo not given)
  Resorufin autofl: .
  A647 fluor: .
  TSHR agonist: 2%
  A488 fluor: .
  AID923: 2.9%
Cn1ccnc1Sc1nnnn1-c1ccccc1
  Resorufin autofl: i
  A647 fluor: 3e-08
  TSHR agonist: 7%
  A488 fluor: i
  AID923: 0.4%
Cc1ccc(CCNC(=O)CN2CCN(Cc3ccccc3F)C2=O)cc1
  Resorufin autofl: i
  A647 fluor: 2.4e-09
  TSHR agonist: ?
  A488 fluor: i
  AID923: -0.6%

(continued)
SMILES | Resorufin autofl | A647 fluor | TSHR agonist | A488 fluor | AID923
COC(=O)c1c(-c2ccc(OC)c(OC)c2)csc1N | i | 1.7e-09 | 15% | i | 1.6%
CCN1C(=O)N(C)C2(c3ccccc3)N(C)C(=O)N(C)C12c1ccccc1 (stereo not given) | i | 8.5e-09 | 14% | i | -1.2%
COc1cc(NC(=O)CCN2CCN(c3ccccc3F)CC2)cc(OC)c1 | i | 2.2e-09 | 4% | i | 1.4%
CSc1nc2ccc(NC(=O)C3CCCO3)cc2s1 (stereo not given) | i | 2.6e-08 | 0% | i | 0.0%
COc1ccc(C(=O)N2CCC[C@@]3(CCN(C(=O)Nc4ccccc4)C3)C2)cc1 | i | 2e-08 | ? | i | 2.9%
CNCCC=C1c2ccccc2C=Cc2ccccc21 | i | 3.5e-09 | -2%[25.6 µM] | i | -2.3%[25.7 µM]
CC(C)N1C(=O)CCC1C(=O)NCCc1ccccc1 (stereo not given) | i | 1e-09 | 0% | i | -0.9%
Cn1c(=O)n(C)c2cc(C(N)=O)ccc21 | i | 2e-08 | 0% | i | 1.0%
Cc1ccc(CNn2cnnc2SCC(=O)NC(C)(C)C)cc1 | i | 1.5e-08 | ? | i | 0.8%
Cc1cc(C)cc(NC(=O)CSc2nnc(-c3ccc(S(=O)(=O)N4CCCC4)cc3)o2)c1 | i | 2e-08 | 5% | i | 1.2%
CCOC(=O)N1CCC(N2Cc3cccc(C(=O)O)c3C2=O)CC1 | . | . | -3% | . | 0.0%
Cc1cc(Cl)c(S(=O)(=O)N2CCCCCC2)cc1OCC(N)=O | i | 5.2e-09 | 6% | i | -3.6%
NCc1ccc(-c2nc3ccccc3o2)cc1 | i | 2.4e-08 | 17% | i | 0.5%
C=C(C)n1c(=O)[nH]c2ccccc21 | i | 1.7e-08 | 3% | i | -0.2%
CCCCCC(=O)N(O)C1CC(=O)N(c2ccccc2)C1=O (stereo not given) | i | 2.6e-09 | -1% | i | -1.5%
CCOC(=O)C1CCCN(C(=O)Cn2ncc3c(=O)oc4ccc(C)cc4c32)C1 (stereo not given) | . | . | 2% | . | 0.8%
CC1=C(/C=C/C(C)=C/C=C/C(C)=C/CO)C(C)(C)CCC1 | . | . | ? | . | -3.4%
OC[C@@H]1CCC[C@H](n2cnc3c(=S)nc[nH]c32)O1 | i | 1.7e-08 | 4%[11.4 µM] | i | 3.7%[11.5 µM]
CCC1CCCCN1CCCNC(=O)C1CCN(S(=O)(=O)N2CCCCC2)CC1 (stereo not given) | i | 1e-09 | 0% | i | 2.0%
CCSc1nnc(NC(=O)CSc2nccn2-c2cccc(C)c2)s1 | i | 1.1e-08 | 3%[11.4 µM] | i | 0.1%
NC(=O)c1cnn2c(C(F)(F)F)cc(-c3ccccc3)nc12 | i | 1.7e-08 | 12% | i | 5.9%
CSc1nsc(SC)c1NC(=O)N1CCCC1 | i | 1e-08 | -3% | i | 0.4%
COc1ccc(C2C(C(=O)N3CC(C)CC(C)C3)c3ccccc3C(=O)N2C)cc1 (stereo not given) | i | 6.5e-09 | ? | i | 1.4%
CO[C@@H]1COC(=O)CC=C[C@@H](C)[C@@H]2C=C[C@H](O)[C@@H](COC(=O)[C@H](C)NC(=O)CC=C[C@H]1C)O2 | . | . | 2%[11.4 µM] | . | -0.6%[11.5 µM]
CCOC(=O)OCC1OC(c2ccccc2)C=CC1Oc1cccc(N(C)C)c1 (stereo not given) | . | . | 14%[11.4 µM] | . | 0.4%[11.5 µM]
CCOC(=O)N1CCN(S(=O)(=O)c2cccc3nsnc23)CC1 | i | 1.4e-08 | 4%[11.4 µM] | i | 1.4%
Cn1c(C(O)c2ccc3c(c2)OCO3)nc2ccccc21 (stereo not given) | i | 1e-09 | 9% | i | -2.1%
COC(=O)c1c(C(=O)OC)c2oc3ccccc3n2c1Cl | i | 1e-09 | 14% | i | -0.8%
Clc1ccc(-c2nnc(N3CCCC3)nn2)cc1 | i | 2.2e-08 | -49%[inhibitor] | i | 0.6%
COc1ccccc1CNCCCCCCNCCCCCCCCNCCCCCCNCc1ccccc1OC | i | 1e-09 | . | i | -1.9%
CCc1nnc(NC(=O)CSc2ncc(-c3ccccc3)n2CC)s1 | i | 5.4e-09 | ? | i | -0.6%
O=C(Cn1c2c(c(-c3ccccc3)cc1=O)CCCC2)N1CCCCCC1 | . | . | ? | . | -0.9%
COCCn1c(SCC(=O)N2CCCC2)nnc1-c1ccoc1C | i | 1e-09 | 4% | i | 0.7%
Clc1ccc(C2=Nn3c(nnc3-c3n[nH]c4c3CCC4)SC2)cc1 | i | 5.4e-09 | ? | i | -0.3%
O=C(Nc1ccc(O)cc1C(=O)O)c1cccc(Br)c1 | i | 5.8e-09 | . | i | 0.2%
COC(=O)Cc1n[nH]c(=S)[nH]c1=O | i | 2e-08 | -1% | i | 0.1%
COc1ccccc1C(=O)N1CCN(S(=O)(=O)Cc2ccccc2)CC1 | . | . | -3% | . | 0.8%
CN1C(=O)CSc2ccc(NC(=O)NCCC3=CCCCC3)cc21 | i | 4.7e-08 | ? | i | 2.5%
COc1ccc(N2CCN(S(=O)(=O)c3ccc(Br)s3)CC2)cc1 | i | 1.8e-09 | -8% | i | 2.4%
CCN(CC)CCCN1C(=O)C(=O)/C(=C(/O)c2ccccc2)C1c1cc(OC)ccc1OC (stereo not given) | i | 2.8e-08 | . | i | .
CN(Cc1ccccc1)C(=O)Nc1ccccc1 | i | 4.9e-09 | 6% | i | -0.3%
CCOc1ccc(NC2CCN(C(C)=O)CC2)cc1 | . | . | -14% | . | -0.6%
COc1ccccc1CN(Cc1nc2ccccc2c(=O)[nH]1)C(=O)Nc1ccccc1 | i | 3.3e-08 | 16% | i | 1.0%
CC1Cc2ccccc2N1C(=O)CCS(=O)(=O)c1cccc2nonc12 (stereo not given) | i | 1.4e-08 | -8% | i | 1.8%
Cc1ccccc1OC(C)C(=O)NC1CCCC1 (stereo not given) | i | 2.9e-09 | 8% | i | 1.6%
Clc1ccccc1C(c1ccccc1)(c1ccccc1)n1ccnc1 | i | 8.8e-09&3.4e-09 | 40µM*! | i | -1.0%
CCCCC(CC)Cn1c2nc3ccccc3nc2c2c(=N)oc(C)nc21 (stereo not given) | ? | 1.7e-09 | ? | i | 4.1%
O=C(O)CCc1ccc(-c2ccc(Br)cc2)o1 | i | 1e-09 | ? | i | 1.0%
COc1ccc(N2CCN(C(c3cccs3)C(C)NC(=O)c3ccco3)CC2)cc1 (stereo not given) | i | 2.9e-08 | -3% | i | -1.5%
N[C@H](C(=O)O)[C@@H]1C[C@@H]1C(=O)O | . | . | 2%&2% | . | -1.5%&1.8%
O=C(NCCN1CCOCC1)c1cc(-c2ccc(Cl)cc2)on1 | i | 3.1e-08 | 1% | i | 1.6%
CCN1CCN(c2ncc(C(=O)N3CCCc4ccccc43)c3ccccc23)CC1 | i | 1.7e-08 | 16% | i | 1.0%
NC(=O)CNCCC(c1ccccc1)c1ccccc1 | i | 2.6e-08 | ? | i | 1.5%&-2.3%
O=C(C1CCC1)N1CCc2cc(S(=O)(=O)N3CCc4ccccc4C3)ccc21 | i | 2.5e-08 | 12% | i | 0.3%
CCOc1cc(CNn2cnnc2)ccc1OCC(=O)NC1CCCCC1 | i | 3.6e-08 | 1% | i | -3.1%
Cc1ccc(-c2nc3ncccn3c2NC(=O)C2CC2)cc1 | i | 2.7e-08 | 3%[11.4 µM] | i | 12%

Next entries follow.
SMILES | Resorufin autofl | A647 fluor | TSHR agonist | A488 fluor | AID923
CCC(C)C(NC(=O)c1ccccc1NC(=O)c1ccco1)C(=O)O (stereo not given) | i | 5.2e-09 | -4% | i | 0.1%
O=C1C=CC(=Nc2cccc3c(N=C4C=CC(=O)O4)cccc23)O1 | i | 2.7e-08 | 22%[11.4 µM] | i | -3.0%[11.5 µM]
CCN(CC)CCN1C(=O)C(=O)/C(=C(/O)c2cnn(-c3ccccc3)c2C)C1c1cccnc1 (stereo not given) | i | 4.7e-09 | -6% | i | 1.6%
O=S(=O)(NCc1ccccc1)c1cnc[nH]1 | i | 5.7e-09 | 2% | i | -0.5%
Cc1[nH]n2c(=O)c3c(nc2c1-c1ccc(Cl)cc1)CCC3 | i | 1.7e-08 | 1% | i | 1.1%
NCCCCCCCCCCNS(=O)(=O)c1cccc2c(Cl)cccc12 | . | . | ? | . | -3.9%
O=S(=O)(NCC(c1cccnc1)N1CCN(c2ccccc2)CC1)c1cccs1 (stereo not given) | i | 1e-09 | 11% | i | 5.8%
N#Cc1c[nH]n2c(=O)cc(Cc3ccccc3)nc12 | i | 1e-09 | 11% | i | 3.2%
COc1ccc(-c2nnc(-c3ccc(Br)o3)o2)cc1OC | i | 1.1e-08 | 5% | i | 1.1%
Cc1cccc(N2CCN(C(=O)Cn3cccc3)CC2)c1C | . | . | 6% | . | 0.1%
COCCOC(=O)C1=C(C)NC(=O)NC1c1cn(-c2ccccc2)nc1-c1cccs1 (stereo not given) | i | 1e-09 | 17% | i | -0.3%
Cc1cccc(OCc2nnc(SCC(=O)N3CCCC3)n2C)c1 | i | 3.9e-08 | 0% | i | 0.5%
O=C(CSc1nnc(-c2cccs2)n1-c1ccccc1)Nc1ccccc1 | i | 1.2e-08 | ? | i | 0.1%
CCOC(=O)C1CCN(C=Nc2cc(C)on2)CC1 | i | 1e-09 | 1% | i | -0.2%
CCN(CC)CCCCNC(=O)c1ccc(Cc2nc3ccccc3[nH]2)cc1 | . | . | -3% | . | 0.2%
CC(C)C(NC(=O)CN1C(=O)c2ccccc2S1(=O)=O)C(C)C | . | . | 8% | . | 3.1%
c1ccc(-c2nc(NC3CC3)nc(-n3ccnc3)n2)cc1 | i | 6.2e-09 | . | i | -1.2%
Cc1ccc2c(CN3CCN(CCO)CC3)cc(=O)oc2c1 | i | 3.7e-08 | 3% | i | 0.0%
Cc1csc(NC(=O)CSc2nncn2C)n1 | i | 3.5e-09 | 9% | i | -1.6%
Cn1nnc2cc(C(=O)N3CCSCC3)ccc21 | i | 1.1e-09 | -2% | i | 0.7%
O=C(O)CN(Cc1ccco1)S(=O)(=O)c1ccc(F)cc1 | i | 9.5e-09 | 4% | i | -0.9%
